Assay outcomes deposited in PubChem by National Center for Advancing Translational Sciences (NCATS).
ClpP mod – qHTS Assay for Activators of ClpP | ATP-dependent Clp protease proteolytic subunit (Bacillus subtilis (strain 168)), P80244 | purified B. subtilis ClpP, FRET peptide cleavage, 20 min | Potency, µM (series often up to 57.5 µM), for the others: at the top dose activity change, negative = active | hit rate 1.9% among 340,000; active = well fitted falling curve with a large enough effect; inconclusive = small, poorly fitted or top-dose-only effect; inactive = no such curve, though single readings can be large or run the other way; further: the source files actives as falling curves though it sought activators and does not explain the sign; nearly all actives have a fitted effect of over 65% in size; many hits overshoot -100%
Target sequence (P80244 whole entry, looked up): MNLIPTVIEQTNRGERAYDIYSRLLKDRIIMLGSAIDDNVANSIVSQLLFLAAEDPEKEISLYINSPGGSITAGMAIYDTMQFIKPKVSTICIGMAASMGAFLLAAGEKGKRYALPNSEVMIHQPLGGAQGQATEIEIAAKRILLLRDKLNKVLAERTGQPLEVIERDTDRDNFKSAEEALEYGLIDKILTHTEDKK
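ClpP 10 microg/mL final, pH 8 Tris/KCl buffer with BSA, glycerol, Tween-20; compound pinned in; FRET-FV substrate; RT 20 min; Ex320/Em430; ΔFRET vs ADEP 5.8 microM, DMSO, no enzyme.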
* hit, by the source's call; ? = inconclusive; & = joins results of further samples. Potency means the concentration at half of the fitted maximal effect. A portion of the library. The share of hits here may be higher or lower than overall.

SMILES	ClpP mod
CC(=O)Nc1cc(-c2cccc(F)c2)cn2c(-c3ccc(F)cc3)cnc12	?
NC(Cc1ccc(C(F)(F)F)cc1)c1csc(Nc2ccc(C(=O)NCc3ccco3)cn2)n1 (stereo not drawn)	-25.9%
CCN(CCCN(C)C)c1ccc(/C=C/c2ccnc3ccccc23)cc1	1.8%
O=C(NCc1cccc(C(F)(F)F)c1)c1ccc2sc([C@@H]3O[C@H](CO)[C@@H](O)[C@H]3O)nc2c1	-2.8%
Cc1ccc(S(=O)(=O)N2C(c3ccc(Cl)c(Cl)c3)CC=C(C(=O)O)C2c2cccc(Cl)c2)cc1 (stereo not drawn)	1.5%
O=C(Nc1c(-c2ccccc2)[nH][nH]c1=O)c1cnccn1	0.2%
N#Cc1ccc(C(C(=O)NC2CCCCC2)n2c(=O)c(-c3cc4ccccc4[nH]3)nc3ccccc32)cc1 (stereo not drawn)	2.0%
Cc1cc(C(=O)N2CCC2(C)C(=O)NCC(C)(C)C)nn1C (stereo not drawn)	0.5%
OC(c1cccc(CN2CCCCC2)c1)c1ncc(-c2cccc(C(F)(F)F)c2)[nH]1 (stereo not drawn)	-3.4%
O=c1ccc2ccccc2c2ccccc12	-10.8%
CN(c1cc2c(c3c1ccn3C)C1CCC2C1)C1CCCCC1 (stereo not drawn)	?
Cc1cc(C)cc(Cn2c(C)c(C(=O)N(C)Cc3ccc(F)cc3)sc2=O)c1	1.9%
CC(=O)/C=C1\OCc2ccccc21	1.1%
Nc1nc2ncccc2cc1C(=O)NCCc1cccs1	4.8%
CCc1ccc(NC(=O)CSc2nnc(-c3ccccc3)n2CC)cc1	0.8%
Cc1cccc(C)c1NC(=O)C(c1ccc(C(F)(F)F)cc1)n1c(=O)c(-c2ccco2)nc2ccccc21 (stereo not drawn)	4.3%
CCOC(=O)C1=CCN(S(=O)(=O)c2ccccc2F)C1c1ccc(F)cc1 (stereo not drawn)	1.6%
COc1ccccc1-c1csc(C(O)c2ccc(F)cc2)n1 (stereo not drawn)	0.8%
O=C(C[n+]1ccc2ccccc2c1)c1ccc(O)c(O)c1	0.4%
Cc1ccc(F)cc1C(=O)N1CCCC(c2cc(C(=O)Nc3ccccc3Cl)no2)C1 (stereo not drawn)	-1.9%
CCCCn1nnnc1C(c1ccccc1)N1CCN(CCN2CCOCC2)CC1 (stereo not drawn)	3.6%
O=S(=O)(NCCCCNS(=O)(=O)c1cccc2cccnc12)c1cccc2cccnc12	-0.2%
CC1(Cc2ccc(F)cc2)C(=O)Nc2c(Cl)cccc21 (stereo not drawn)	-0.3%
CCCCOc1ccc(S(=O)(=O)NC(=O)C2(C)CCN2C(=O)CCc2ccccc2)cc1 (stereo not drawn)	5.3%
CC1(Oc2ccccc2-c2ccno2)CCN(Cc2ccc(-c3ccccc3)o2)C1 (stereo not drawn)	-11.2%

Rewritten as labelled records: part of the list above.
canonical_smiles: CCc1ccc(NC(=O)CSc2nnc(-c3ccccc3)n2CC)cc1
- ClpP mod: 0.8%

canonical_smiles: O=S(=O)(NCCCCNS(=O)(=O)c1cccc2cccnc12)c1cccc2cccnc12
- ClpP mod: -0.2%

Next section.
SMILES	ClpP mod
COc1cccc(CNc2nc(NCC3CC3)nc3ccsc23)c1	-16.4%
CN(C)c1ccc(-c2csc(C(O)(c3ccccc3)C(F)(F)F)n2)cc1 (stereo not drawn)	?
COc1ccc(/C=C(\C)C(=O)NO)cc1	-0.5%
CC(C)=C(C)c1cc2nc(NCCCN(C)C)n(C)c(=O)c2s1	-10.2%
CCc1nc2c(OCc3c(C)noc3C)cccn2c1N(C)C(=O)C(C)C	-1.8%
CC(=O)Nc1ccc(-c2ccnc3c2CC(C(=O)NCc2cccc(Cl)c2)O3)cc1 (stereo not drawn)	4.0%
O=C(COc1ccccc1C(=O)Nc1ccccc1F)Nc1ccc(Br)cc1	-7.0%
Cc1nc2c(OCc3cccc(Cl)c3)cccn2c1N(C)Cc1cccs1	-9.7%
CC(=O)NC(c1cccc(F)c1)c1nc(-c2ccccc2C)cs1 (stereo not drawn)	2.3%
Nc1nc(=S)[nH]c(N)c1N	2.7%
CC(C)C(=O)N1CCCC1(C)C(=O)Nc1ccc(F)cc1 (stereo not drawn)	0.7%
CC(C)C[C@@H]1COc2cccc(N3CCSCC3)c2S(=O)(=O)N1	-1.3%
CCC(c1nnnn1-c1ccc2c(c1)OCCO2)N1CCN(c2ccc(F)cc2)CC1 (stereo not drawn)	-2.3%
CCNC(=O)C1(C)CCCCN1Cc1ccc(C#N)cc1 (stereo not drawn)	-4.4%
CCc1c(-c2cccc(Br)c2)ncn1Cc1cccc(-c2ccccc2)c1	-2.4%
Cc1cccc(CN2CCN([C@H]3CS(=O)(=O)N[C@@H]3COCc3ccccc3)CC2)c1	-2.4%
Fc1ccc(Nc2nc(NCc3cccs3)nc3ccsc23)cc1	-28.1%
N#Cc1cccnc1N1CCN(C(C(=O)NC2CCCC2)c2ccc(F)cc2)CC1 (stereo not drawn)	-6.6%
CCc1nc2ccc(C(=O)Nc3cccc(OC)c3)cn2c1N(C)Cc1ccc(OC)cc1	-3.9%
CCOC(=O)CN1C(=O)N2C[C@H]3CON(C)[C@H]3C[C@H]2c2ccccc21	-1.4%
CC1=C(C(=O)N2CCCCCC2)CC(CC(=O)NC(c2ccccc2)c2ccccc2)C(=O)N1CCC1=CCCCC1 (stereo not drawn)	-0.7%
CCCCN1C(=O)C(=O)NC[C@@H]1CC1CCCCC1	-2.2%
Cc1cnc(CNc2nc3cc(-c4ccccc4C)sc3c(=O)n2C)cn1	-10.5%
O=C(Nc1ccccc1)C1Cc2c(-c3ccc4c(c3)OCO4)ccnc2O1 (stereo not drawn)	5.0%
CCCCc1c(-c2cccc(Br)c2)ncn1CCc1ccccc1OC	-0.9%
SMILES	ClpP mod
c1ccc2c(N=NN3CCCCC3)ccnc2c1	2.3%
O=C(O)c1cccc(-c2csc(C(O)c3cccc(Cl)c3)n2)c1 (stereo not drawn)	-5.6%
CN(N=O)c1ccc(C=C2c3ccccc3-c3ccccc32)cc1	-1.5%
Cc1ccc(-c2csc(C(C)(O)c3cccc(F)c3)n2)cc1C (stereo not drawn)	0.4%
O=[N+]([O-])c1ccc2c(c1)C=C/C2=C\c1ccc(C=S)cc1	0.6%
CCOC(=O)Cc1ccc(Nc2nc3cc(-c4ccccc4C)sc3c(=O)n2C)cc1	?
CCC(=O)N1CCC1(C)C(=O)Nc1cc(OC)ccc1OC (stereo not drawn)	0.8%
COCCNC(=O)C1CCCN(C(=O)c2nc(C)oc2C)CC1 (stereo not drawn)	-0.4%
CC1(C(=O)NS(=O)(=O)c2cccc(Cl)c2)CCN1C(=O)CCc1cccs1 (stereo not drawn)	0.1%
COc1cccc(-c2nc(-c3ccccc3)c3ccc(Cl)cc3n2)c1	-3.1%
OC[C@@H]1CN(Cc2ccc3c(c2)OCO3)C[C@H](n2cnc3c(N4CCN(c5ccccc5)CC4)ncnc32)O1	-11.3%
COc1cc(NC(=O)N2CCc3nc(NCc4cccc(Oc5ccccc5)c4)ncc3C2)cc(OC)c1OC	-11.4%
Cc1cccc(CN2CCN([C@@H]3CS(=O)(=O)N[C@H]3COCc3ccccc3)CC2)c1	-0.9%
CN1OC[C@@H]2CN(S(=O)(=O)c3ccccc3)[C@H](c3ccccc3Br)C[C@@H]21	-0.5%
COC(=O)[C@]12CCCCC=C1N(CCc1ccc(OC)c(OC)c1)C(=O)[C@H](CC(=O)N1CCN(C(=O)C3CC3)CC1)C2	0.8%
CC(C)C[C@@H]1O[C@H](CCc2ccccc2)CC2=C1C(=O)OC(C)(C)O2	2.0%&-1.8%
O=C(Nc1ccc(F)c(Cl)c1)c1csc([C@H]2C[C@H](O)[C@@H](CO)O2)n1	-2.5%
COc1ccc(CN(C)C(=O)[C@H]2O[C@@H](n3ccc(N)nc3=O)[C@H](O)[C@@H]2O)cc1OC	1.3%
O=C(CC[C@H]1O[C@@H](n2cnc3c(NC(=O)c4ccccc4)ncnc32)[C@H](O)[C@@H]1O)NCc1ccc2c(c1)OCO2	-0.5%
COc1ccccc1-c1csc(C(NC(C)=O)c2ccc(F)c(F)c2)n1 (stereo not drawn)	-0.7%
CC1(C)CC(Cc2ccc(C(F)(F)F)cn2)N(C(=O)OC(C)(C)C)C1 (stereo not drawn)	2.1%
CN(CCc1ccccc1)C(C(=O)Nc1ccc2c(c1)OCCO2)C1CC1 (stereo not drawn)	-3.8%
CCc1nc2c(OCCC3CCCCC3)cccn2c1N(C)C(=O)C(C)C	1.1%
CCC(c1nnnn1Cc1ccccc1)N(Cc1ccccc1)Cc1cc2cc(C)ccc2[nH]c1=O (stereo not drawn)	?
CC1(C(=O)Nc2ccc3c(c2)OCCO3)CN(S(C)(=O)=O)CC(=O)N1Cc1ccco1 (stereo not drawn)	3.2%
SMILES	ClpP mod
CCOc1n[nH]c(-c2ccccc2)n1	-0.6%
C[N+]1(CC(=O)c2cccs2)CCOCC1	1.5%
O=C(NCC1CC1)c1cc2c(c(-c3cccc(-c4ccccc4F)c3)n1)[C@@H](CCO)N(C(=O)CC1CC1)C2	-0.1%
CCc1nc2ccc(C(=O)NCc3ccccc3OC)cn2c1N(CC)Cc1cccc(Br)c1	?
CCC(C(=O)NC1CCCC1)n1c(C2CC2)nc2ccccc21 (stereo not drawn)	2.0%
CCOC(=O)C1(C)CCCN(C(=O)c2snnc2C)C1 (stereo not drawn)	1.3%
CCCNC(=O)C1(C)CCCN(Cc2cccc3ccccc23)C1 (stereo not drawn)	-0.7%
Cc1cccc(C(O)c2ncc(-c3cccc(C(F)(F)F)c3)[nH]2)c1C (stereo not drawn)	-0.5%
CCOC(=O)[C@]12CCC=C1N(Cc1cccc3ccccc13)C(=O)[C@H](CC(=O)N1CCCCC1)C2	-0.3%
CCCCN(C)C(=O)c1ccc(Nc2nc(C(N)CCc3ccccc3)cs2)nc1 (stereo not drawn)	-18.3%
C=CCC[C@H](CCCCC)OC(=O)/C=C/[C@@H](O)[C@H](O)C[C@H](O)CC=C	2.7%
CN(C)c1ccc(/C=C/c2c(Cl)cnc3ccccc23)cc1	0.8%
CC(C)(C)OC(=O)N(Cc1ccco1)S(=O)(=O)c1ccccc1Br	-0.3%
COc1ccc(/C=C/c2ccccn2)cc1OC	4.5%
C#CCNC(=O)c1ccc2sc([C@@H]3O[C@H](CO)[C@H](O)[C@H](O)[C@H]3O)nc2c1	-0.6%
CCN(Cc1ccccc1)c1ccc(/C=C/c2ccnc3ccccc23)cc1	-0.3%
CC(C)c1cccc(C(C)C)c1NC(=O)OC1CCCCC1	1.9%
CO[C@@H]1CN(C)C(=O)c2cc(NC(=O)C3CC3)ccc2OC[C@H](C)N(C(=O)CN2CCOCC2)C[C@@H]1C	-0.8%
CCCCNC(=O)C(NC(=O)c1cccc2ccccc12)C(=O)c1ccccc1 (stereo not drawn)	-5.2%
COc1cc(F)ccc1-c1csc(C(O)c2ccc(F)cc2)n1 (stereo not drawn)	-0.7%
CC(=O)Nc1ccc(/C=C/c2ccncc2)cc1	3.7%
CCc1nc2ccc(C(=O)Nc3ccc(OC)c(OC)c3)cn2c1N(CC)Cc1ccc(OC)c(OC)c1	0.0%
NC(c1ccccc1)c1csc(Nc2ccc(C(=O)NCCCO)cn2)n1 (stereo not drawn)	-12.8%
COC(=O)[C@@]1(Cc2ccc(OC)cc2)[C@H]2c3cc(C(=O)N4CCCC4)n(Cc4ccccc4)c3C[C@H]2CN1C(=O)c1ccccc1	1.9%
COC(=O)CCCn1cc(CN(C)C2CN(Cc3cn(CCCC(=O)OC)nn3)S(=O)(=O)C2)nn1 (stereo not drawn)	-0.4%

Another view of part of the listing above.
> CO[C@@H]1CN(C)C(=O)c2cc(NC(=O)C3CC3)ccc2OC[C@H](C)N(C(=O)CN2CCOCC2)C[C@@H]1C
- ClpP mod: -0.8%
> CCOC(=O)[C@]12CCC=C1N(Cc1cccc3ccccc13)C(=O)[C@H](CC(=O)N1CCCCC1)C2
- ClpP mod: -0.3%
> C#CCNC(=O)c1ccc2sc([C@@H]3O[C@H](CO)[C@H](O)[C@H](O)[C@H]3O)nc2c1
- ClpP mod: -0.6%
> COc1cc(F)ccc1-c1csc(C(O)c2ccc(F)cc2)n1 (stereo not drawn)
- ClpP mod: -0.7%

(next part)
SMILES	ClpP mod
Cc1ccc(Cc2c(-c3ccc(C)cc3)nc3c(Cl)cc(C(F)(F)F)cn23)cc1	-11.9%
CC(C)(C)c1ccc(S(=O)(=O)N2CCN(c3nc(-c4ccccc4)nc4ccccc34)CC2)cc1	?
O=C(Nc1nccs1)[C@@H]1CC=C[C@@H]2CCN(Cc3ccc(Cl)c(Cl)c3)C(=O)[C@@H]21	-1.0%
O=C(c1cc(C2CCCCN2S(=O)(=O)c2ccccc2)on1)N1CCOCC1 (stereo not drawn)	-0.4%
NCc1cn(Cc2ccccc2)nc1-c1ccccc1	-2.4%
Cn1ccc2c(-c3cccc4ccccc34)cc3c(c21)C1CCC3C1 (stereo not drawn)	5.5%
Cc1ccc(S(=O)(=O)N2[C@@H](CO)CO[C@H]2CC(=O)OCc2ccccc2)cc1	-3.1%
COc1ccccc1-c1cnc(C(O)c2ccc(F)c(F)c2)[nH]1 (stereo not drawn)	-1.4%
O=C1NC[C@@H](Cc2cccc3ccccc23)N(CCc2cccc(F)c2)C1=O	-1.9%

6 entries already listed, ordered by heavy-atom count, descending:
SMILES	ClpP mod
CC(C)(C)c1ccc(S(=O)(=O)N2CCN(c3nc(-c4ccccc4)nc4ccccc34)CC2)cc1	?
Cc1ccc(Cc2c(-c3ccc(C)cc3)nc3c(Cl)cc(C(F)(F)F)cn23)cc1	-11.9%
O=C(c1cc(C2CCCCN2S(=O)(=O)c2ccccc2)on1)N1CCOCC1 (stereo not drawn)	-0.4%
Cn1ccc2c(-c3cccc4ccccc34)cc3c(c21)C1CCC3C1 (stereo not drawn)	5.5%
COc1ccccc1-c1cnc(C(O)c2ccc(F)c(F)c2)[nH]1 (stereo not drawn)	-1.4%
NCc1cn(Cc2ccccc2)nc1-c1ccccc1	-2.4%
